Vaccinia Venus: vaccinia inhibition (Venus reporter); Vaccinia virus Venus reporter expression, fluorescence; Potency, µM (top dose mostly 36.5 µM), for the others: top-dose activity change, negative = inhibition, actives largely listed as inhibitors; 330,000 tested, 0.46% active; AID 720580; active means well fitted inhibition curve with a large enough effect; inconclusive means small, poorly fitted or top-dose-only effect; inactive means no such curve, though single readings can be large or run the other way; tested in A549 cells; further: nearly all actives have a fitted effect of over 30% in size; inactives centre near -10
VACV mCherry inh: vaccinia inhibition (mCherry reporter) | Vaccinia virus mCherry reporter infection, fluorescence; about a quarter of the inactives have no number | Potency, µM (top dose mostly 36.5 µM), for the others: at the top dose activity change, negative = inhibition, most hits filed as inhibitors | 310,000 tested, 0.63% active | AID 720579; active = well fitted inhibition curve with a large enough effect; inconclusive = small, poorly fitted or top-dose-only effect; inactive = no such curve, though single readings can be large or run the other way; tested in A549 cells; further: nearly all actives have a fitted effect of over 35% in size; inactives centre near -10
Numbers without * were called inactive; i = inactive; ? = inconclusive; / = no result given; [ ] = another dose, or the depositor's remark. On the % scale 0 is the no-effect control and ±100 the full control effect; potency means the concentration at half of the fitted maximal effect.

SMILES | Vaccinia Venus | VACV mCherry inh
COc1cc(CNC(=O)c2cnc3c(-c4cccc(C)c4)c(C)nn3c2C)cc(OC)c1OC | -9% | -7%
CCON1C(=O)C2(CCCCC2)C(=O)C12C=CCCC2 (centres undefined) | 2% | i
COc1cccc(CNC(=O)CCC2CCCN(c3cc(C)nc(N(C)C)n3)C2)c1 (centres undefined) | -18% | -7%
COc1ccc(CCN2C(=O)CS/C2=N/NC(=O)c2ccccc2F)cc1OC | -25% | -26%
CC(C)CN1C(=O)CN(S(C)(=O)=O)CC1(C)C(=O)Nc1ccc2c(c1)OCCO2 (centres undefined) | -16% | -11%
COc1ccc(OC)c(NC(=O)CSc2nc(-c3ccccc3C)nc3cc(=O)[nH]n23)c1 | -11% | -1%
CC(C)(C)NC(=O)C(c1ccccc1)n1c(-c2ccc(-c3ccccc3)cc2)nc2ccccc21 (centres undefined) | -3% | 2%
CCOc1ccc(NC(=O)NC(C)c2c(-n3cccc3)sc3c2CCN(CC)C3)cc1 (centres undefined) | -11% | -7%
CC(Sc1nc2cc([N+](=O)[O-])ccc2n1-c1ccc(F)cc1)C(=O)NCc1ccc2c(c1)OCO2 (centres undefined) | -10% | -3%
CCOc1ccccc1Nc1sc(C(=O)c2ccccc2)c(N)c1C(=O)NCCc1ccccc1 | -5% | -10%
COc1ccc(C(=O)OCCc2sc[n+](CC(=O)c3ccccc3)c2C)cc1 | -11% | -6%
O=C(/C=C/c1ccc(-c2ccccc2)cc1)NCc1cccnc1 | -17% | -9%
COc1ccc([C@H]2C[C@H](n3cc(COC(=O)c4ccccc4)nn3)[C@@H](O)CN2C(=O)C2CCCCC2)cc1 | -19% | -10%
CCn1ccnc1C(O)c1cccc(OC)c1OC (centres undefined) | -10% | -11%
CC(=O)N1CCN(c2ccc([N+](=O)[O-])cc2C#N)CC1 | 0% | -11%
COc1ccc(CNCc2cccc(Cl)c2)cc1 | -18% | i
C=CCN(C(=O)CNC(=O)c1ccco1)C(C(=O)NC1CCCCC1)c1ccc(F)cc1 (centres undefined) | -5% | -2%
CC(C)Sc1nc2c(c(=O)[nH]c(=O)n2C)n1C | 13% | /
COC(=O)c1ccc(COc2cccc3c2OC(C)(C)C3)cc1 | -10% | -28%
CCCCNC(=O)CCCn1c(=O)c2ccccc2n(CC(=O)NCCC2=CCCCC2)c1=O | -16% | -9%
CCOc1ccc(Br)cc1C1=CC(=O)C[C@H](c2ccc(OC)cc2)C1 | -5% | i
CCCCN1CCNC1=S | -12% | i
Cc1ccc(-c2nnc(Nc3ccc(CC(N)=O)cc3)c3ccccc23)cc1 | ? | ?
CCOC(=O)c1c(C)n(Cc2ccccc2)c2ccc(OCC(O)CNC(C)(C)C)cc12 (centres undefined) | ? | -4%
CCc1nc2c(cnn2-c2ccc(Cl)cc2)c(=O)n1-c1ccc(OC)c(Cl)c1 | -12%[7.34 µM] | -7%[7.34 µM]

The listing continues:
SMILES | Vaccinia Venus | VACV mCherry inh
CCOc1ccc(Cl)cc1S(=O)(=O)N1CCC(C(=O)N2CCCC2)CC1 | 6% | -5%
CCCn1c(=N)n(CC(O)c2ccco2)c2ccccc21 (centres undefined) | ? | ?
N/C(=N\OS(=O)(=O)c1ccc(Cl)cc1)c1ccncc1 | 1% | -14%
CCn1ccnc1CN1CCCCC1C(=O)Nc1ccc(Oc2cccnc2)cc1 (centres undefined) | -26% | -14%
Cc1ccc(CNC(=O)CN(c2cccc(C)c2C)S(=O)(=O)c2ccccc2)cc1 | -28% | -1%
O=C(NCc1ccccc1)NC1COc2ccccc2C1 (centres undefined) | -9% | -10%
COCCCNC(=O)c1ccc2c(c1)ncn2-c1ccccc1OC | -2% | /
CCOC(=O)C(=CNc1nc(-c2ccc3ccccc3c2)cs1)C(=O)OCC | -13% | -11%
CNC(=O)CC1C(=O)N(C)C(=S)N1NC(=O)c1ccc(Cl)cc1 (centres undefined) | -15% | /
CCn1cc(S(=O)(=O)c2ccc(C)cc2)[nH]c1=O | -3% | i
COc1ccc(C(C)=O)cc1Cn1c(C)c(C(=O)NCC(C)C)sc1=O | 1% | 9%
O=C(NCC1CCCCC1)c1cccc(S(=O)(=O)NCc2cccnc2)c1 | -10% | -16%
O=C(NCCc1ccc(Cl)cc1)c1ccc(CS(=O)Cc2ccc(Cl)cc2)o1 (centres undefined) | -17% | -12%
Cc1ccc(N/C(N)=N/c2nc(C)cc(C)n2)cc1 | -21% | -2%
Cn1c(=O)c2c(ncn2CC(=O)N2CCN(c3ccccc3)CC2)n(C)c1=O | -7% | -12%
Cc1ccc(C)c(OCC(=O)Nc2ccccc2N2CCCC2)c1 | -21% | ?
Cn1ccnc1CC(C)(O)c1ccccc1 (centres undefined) | -10% | -17%
Cc1ccc(Nc2nnc(SCC(=O)c3ccc(O)cc3O)s2)cc1 | 0% | -19%
CCc1ccc(C2C(=O)c3ccccc3C2=O)cc1 | -17% | i
CCCC12C(=O)C(C)(C(c3ccccc3)=C1c1ccccc1)C1C(=O)N(c3ccc(C)cc3)C(=O)C12 (centres undefined) | -11% | i
O=C(Nc1ccccc1C(F)(F)F)C1CCN(C(=O)c2cccs2)CC1 | -2% | -1%
CCc1ccc(C(=O)c2cn(Cc3ccc(F)cc3)c3cc(OC)c(OC)cc3c2=O)cc1 | -27% | -20%
CC(C)c1ccc(NC(=O)COC(=O)c2nn(C)c(=O)c3ccccc23)cc1 | 0% | -9%
Cc1onc(-c2ccccc2)c1C(=O)OCCOc1ccccc1F | -11% | -22%
NC(=O)c1ccc(NCC2CCCO2)c([N+](=O)[O-])c1 (centres undefined) | -11% | i

Other compounds
SMILES | Vaccinia Venus | VACV mCherry inh
CCOc1ccc(NC(=O)Cc2ccccc2)c([N+](=O)[O-])c1 | -11% | -26%
Cc1cc(C(=O)CSc2nnc(N)s2)c(C)n1C1CC1 | -13% | -27%
Cc1ccc(NC(=O)c2ccc3c(O)c(S(=O)(=O)c4ccccc4)c(=O)[nH]c3c2)cc1Cl | -5% | -12%
Cc1ccc(S(=O)(=O)N2CCCCC2)cc1NC(=O)CSc1nncn1-c1ccccc1 | -19% | -17%
CC(C)(C)OC(=O)NCCCCCNC(=O)c1[nH]cnc1C(=O)Nc1ccon1 | -21% | i
NC(=O)/C(=C\c1ccco1)NC(=O)c1ccco1 | -1% | i
C[C@@H]1CN([C@@H](C)CO)S(=O)(=O)c2ccc(C#Cc3cccc(F)c3)cc2O[C@H]1CN(C)S(=O)(=O)c1cn(C)cn1 | ? | -11%
CC(C)O/N=C1\C(=O)N(c2ccccc2)c2ccccc21 | -18% | -26%
Cn1c(=O)n(CC(=O)Nc2ccccc2)c2ccccc21 | 3% | 3%
Cc1ccc(C)c(NC(=O)Cn2c(=O)n(Cc3ccco3)c(=O)c3oc4ccccc4c32)c1 | -21% | -22%
CCOc1ccc(CNS(=O)(=O)c2c(C(=O)N3CCC(C)CC3)c(C)n(C)c2C)cc1OC | -8% | i
CCOC(=O)C1CCCN(C(=O)c2sc3nc(-c4ccc(F)cc4)cn3c2C)C1 (centres undefined) | -2% | -8%
CC(C)(C)c1ccc(-c2nn(CCC#N)cc2/C=N/O)cc1 | -19% | i
CCOC(=O)Cc1csc(NC(=O)c2sc3nc4cc(C)ccc4cc3c2N)n1 | -10% | -27%
CC(C)c1nn2c(=O)cc(COC(=O)c3ccc4c(c3)OCO4)nc2s1 | -8% | 1%
CCC(=O)Nc1ccc(C)cc1-c1nc2ccccc2n(CC(=O)c2ccc(C)cc2)c1=O | -10% | -23%
CC(CN1CCOCC1)OC(=O)C(C)(c1ccccc1)c1ccccc1 (centres undefined) | -12% | -13%
COc1cc(/C=N/NC(=O)c2cccc(S(=O)(=O)N3CCCC3)c2)cc(OC)c1O | ? | -21%
Cc1ccc(C)c(NC(=O)NCCN2CCCCC2)c1 | -14% | -2%
COc1ccc(N2CCN(C(=O)Cn3cnc4c3c(=O)n(C)c(=O)n4C)CC2)cc1 | -13% | -14%
CC1CN(C(=O)Nc2ccc(Br)cc2Cl)CC(C)O1 (centres undefined) | -7% | -13%
CCN(c1ccccc1)S(=O)(=O)c1ccc(C(=O)NCCCn2ccnc2)cc1 | ? | -19%
CC(C)CCn1c(SCc2c(F)cccc2Cl)nc2ccsc2c1=O | 3% | 6%
O=[N+]([O-])c1ccc(Sc2ccccc2)nc1 | -10% | -12%
CCOC(=O)c1c(NC(=O)C2c3ccccc3Oc3ccccc32)sc(C)c1CC | 2% | -1%

(listing goes on)
SMILES | Vaccinia Venus | VACV mCherry inh
COc1ccc(Nc2nc(-c3cccs3)nc3ccccc23)cc1S(=O)(=O)N1CCOCC1 | ? | ?
COc1ccc(N(CC(=O)Nc2ccc(C)c(C)c2)S(=O)(=O)c2ccc(C)cc2)cc1OC | 1% | -5%
CCOc1ccc(NC(=O)CSc2nnc(Cc3ccccc3)c(=O)n2N)cc1 | -18% | -16%
Cc1ccc(C(=O)C(c2ccccc2)N2Cc3ccccc3C2=N)cc1 (centres undefined) | ? | -25%
O=C(NC1CCCCC1)c1cc(S(=O)(=O)N2CCCC2)ccc1Cl | 11% | -13%
Nc1ccc(Sc2ccccc2)nc1 | -10%[7.34 µM] | -3%[7.34 µM]
COC(=O)C[C@@H]1CC[C@@H](NS(=O)(=O)c2cccc(OC)c2)[C@@H](CO)O1 | -7% | -8%
Cc1onc(-c2ccccc2)c1C(=O)Nc1nnc(N2CCCCCC2)s1 | -4% | 40%[activator]
COc1ccc(/C(C)=N/Nc2cccc(C(=O)O)c2)cc1OC | 0% | i
CN1CCN(c2ccc(NC(=O)c3ccc4c(c3)OCCO4)cc2Cl)CC1 | -21% | i
Cc1ccc([N+](=O)[O-])cc1NC(=O)C1CCCC1 | -9% | 1%
CCn1cc(/C=C2/SC(=S)NC2=O)c(C)n1 | 6% | -5%
CCN(CC)S(=O)(=O)c1ccc(NC2CCN(Cc3ccccc3)CC2)nc1 | 0% | -5%
Cc1ccccc1CN1CCNCC1 | -7% | i
CN(C)CCNC(=O)CCCN1C(=O)c2cccnc2Oc2ccc(Cl)cc21 | 2% | -8%
CC(C)C(=O)Nc1cccc(C(=O)Nc2ccc(S(=O)(=O)N3CCOCC3)cc2)c1 | -18% | i
Cc1ccc(CN2C(=O)C(=O)N(CC(N)=O)C2=O)cc1 | -23% | -2%
O=C(Nc1cccc(-c2nc3ccccc3[nH]2)c1)c1c(F)cccc1F | -19% | -18%
Cc1ccc(NC(=O)N2C3CCCC2CC(NC(=O)C2CC2)C3)cc1 (centres undefined) | 1% | 23%
CC(=O)N1CCc2cc(S(=O)(=O)NCCC(=O)NCCc3ccc(C)cc3)ccc21 | -22% | -9%
Cc1ccc(NC(=O)CSc2ncn[nH]2)c([N+](=O)[O-])c1 | -8% | -15%
Cc1nc2cc(NS(=O)(=O)c3cccc4cccnc34)ccc2s1 | -13% | -22%
CN(C)/C=C/C(=O)c1ccncc1 | -10% | -5%
CCCCN1CC(=O)N2[C@@H]3c4cc(Br)ccc4OC[C@@H]3[C@H](C(=O)OCC)[C@]2(C)C1=O | -14% | -15%
CC1CCC/C(=C\Nc2ccc(C(=O)O)c(O)c2)C1=O (centres undefined) | -10% | -14%

Going on with the list.
SMILES | Vaccinia Venus | VACV mCherry inh
O=C(CNS(=O)(=O)c1ccc2ccccc2c1)OCc1nnc(-c2ccccc2)o1 | -7% | /
Cc1ccc(/C=N/NC(=O)CSc2nc3ccccc3[nH]2)o1 | 1% | -24%
O=C(NC1CCCCC1)N1C[C@H]2C[C@@H](C1)c1cccc(=O)n1C2 | -9% | i
Cc1cccc(-c2nc3c4ccccc4nc(N4CCN(c5cccc(Cl)c5)CC4)n3n2)c1 | -9% | -15%
CCOC(=O)c1sc(=S)n(-c2ccccc2)c1N | -5% | /
CCc1nnc(SCC(=O)Nc2nc(C)c(C(=O)N(C)C)s2)n1CC | -6% | -12%
Cc1ccccc1-n1c(O)c(C=NCCN2CCOCC2)c(=O)[nH]c1=O | -17% | /
Cc1nc2sc(C(N)=O)c(N)c2c2c1CCCC2 | ? | ?
COc1ccc(Cl)cc1CN1C(=O)C(Cc2ccccc2)ON=C1C (centres undefined) | -27% | -1%
O=C1NCCCc2nonc21 | -1% | -14%
CCCCC(O)CN1CCC(c2ccccc2)CC1 (centres undefined) | -8% | -14%
COc1ccc(C2(C(=O)NCc3ccco3)CCCC2)cc1OC | -9% | -17%
CSc1nn(-c2ccc(C(=O)OCC(=O)NC(=O)NC(C)C)cc2)c(=S)s1 | -10% | i
N#Cc1ccccc1S(=O)(=O)N1CCN(C(=O)c2cc3c(s2)CCC3)CC1 | -21% | -17%
COc1cccc(CNC(=O)C2CCCN(c3nc4ccccc4o3)C2)c1 (centres undefined) | -11% | -5%

High-throughput results from PubChem.
